BJeLR viability: BJeLR cell viability loss, primary screen, luminescence, CellTiterGlo ATP; BJeLR fibroblasts viability, 48 h; HRASV12, hTERT and SV40 LT/ST transformed; viability loss activity score, % (concentration not given with the values); 30,000 tested, 0.64% active; AID 2275, 2010; in the data active = viability loss activity score above about 50%; about a fifth of its hits are not listed in these tables;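 also: higher score means fewer live cells and less ATP luminescence; stock transfer was 50 or 100 nL into about 30 µL; 0% = vehicle wells and 100% = a reference killing control; one replicate is shown; the record names a cut of 85%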
A1 inhib: inducers of caspase activity in MEF A1-2A-BIM cells, primary screen, A1 inhibitor project, cell-based, CaspaseGlo luminescence; caspase-Glo luminescence, 3 h; percent of clofoctol signal, DMSO as zero; caspase activation, % (no concentration beside the values); 21,000 tested, 0.51% active;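 active = most replicate scores above 10, or exactly half above 10 with mean activity above 10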;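 also: effector caspase 3 and 7 activity cleaving a DEVD luciferin substrate; 50 nL library stock added to about 30 µL; numbers are from one replicate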
The depositor's hits bear a star; & = joins results of further samples. An excerpt; the hit share may differ from the screen's.

SMILES	BJeLR viability	A1 inhib
COc1ccc(C2CNC(=O)C2)cc1OC1CCCC1 (stereo not given)	-7.2	-1.0
CCN(CC)CCOC(=O)c1ccc(N)cc1	1.3	-0.1
CCCCNc1ccc(C(=O)OCCN(C)C)cc1	-0.4	-0.2
CCOC(=O)[C@H](CCc1ccccc1)N[C@@H](C)C(=O)N1Cc2ccccc2C[C@H]1C(=O)O	1.9	0.1
COc1ccc(C[C@H]2COC(=O)[C@@H]2Cc2ccc(O[C@@H]3O[C@H](CO)[C@@H](O)[C@H](O)[C@H]3O)c(OC)c2)cc1OC	5.0	0.3
N#Cc1ccc(C(c2ccc(C#N)cc2)n2cncn2)cc1	-1.8	0.5
CC1Cc2ccccc2N1NC(=O)c1ccc(Cl)c(S(N)(=O)=O)c1 (stereo not given)	-2.3	-0.2
CC(C)=CCOc1c2ccoc2cc2oc(=O)ccc12	-0.7	1.1
CCC(NC(C)C)C(O)c1ccc(O)c2[nH]c(=O)ccc12 (stereo not given)	-7.6	0.4
O=c1cc(-c2ccc(O)cc2)oc2cc(OC3OC(CO)C(O)C(O)C3OC3OCC(O)(CO)C3O)cc(O)c12 (stereo not given)	4.9	0.0

Record cards (already shown):
O=c1cc(-c2ccc(O)cc2)oc2cc(OC3OC(CO)C(O)C(O)C3OC3OCC(O)(CO)C3O)cc(O)c12 (stereo not given) across the screens: BJeLR viability = 4.9; A1 inhib = 0.0
CC1Cc2ccccc2N1NC(=O)c1ccc(Cl)c(S(N)(=O)=O)c1 (stereo not given) across the screens: BJeLR viability = -2.3; A1 inhib = -0.2

4 of the entries above in order of their number in A1 inhib, largest number first:
molecule	A1 inhib
COc1ccc(C[C@H]2COC(=O)[C@@H]2Cc2ccc(O[C@@H]3O[C@H](CO)[C@@H](O)[C@H](O)[C@H]3O)c(OC)c2)cc1OC	0.3
O=c1cc(-c2ccc(O)cc2)oc2cc(OC3OC(CO)C(O)C(O)C3OC3OCC(O)(CO)C3O)cc(O)c12 (stereo not given)	0.0
CCN(CC)CCOC(=O)c1ccc(N)cc1	-0.1
CCCCNc1ccc(C(=O)OCCN(C)C)cc1	-0.2

A few values from above:
Under BJeLR viability, COc1ccc(C2CNC(=O)C2)cc1OC1CCCC1 (stereo not given) shows -7.2
Under A1 inhib, CC1Cc2ccccc2N1NC(=O)c1ccc(Cl)c(S(N)(=O)=O)c1 (stereo not given) shows -0.2
Under A1 inhib, CCCCNc1ccc(C(=O)OCCN(C)C)cc1 shows -0.2
Under BJeLR viability, CC(C)=CCOc1c2ccoc2cc2oc(=O)ccc12 shows -0.7
Under A1 inhib, COc1ccc(C[C@H]2COC(=O)[C@@H]2Cc2ccc(O[C@@H]3O[C@H](CO)[C@@H](O)[C@H](O)[C@H]3O)c(OC)c2)cc1OC shows 0.3
Under A1 inhib, CCN(CC)CCOC(=O)c1ccc(N)cc1 shows -0.1
Under A1 inhib, CCOC(=O)[C@H](CCc1ccccc1)N[C@@H](C)C(=O)N1Cc2ccccc2C[C@H]1C(=O)O shows 0.1

(listing goes on)
SMILES	BJeLR viability	A1 inhib
Cc1ccc(N(CC2=NCCN2)c2cccc(O)c2)cc1	-2.2&-0.2	-0.2&-0.7
C[N+]1(C)CCC(=C(c2ccccc2)c2ccccc2)CC1	4.1	1.0
Oc1ccc(C2CNCCc3c2cc(O)c(O)c3Cl)cc1 (stereo not given)	-2.1	0.5
O=C(O)c1cccnc1Nc1cccc(C(F)(F)F)c1	-0.5	-3.5
CC(=O)CCCCn1c(=O)c2c(ncn2C)n(C)c1=O	1.6	0.6

Screening results from PubChem BioAssay.
